Screening results (PubChem BioAssay)
CDC25B-CDK2 inh: human CDC25B-CDK2/CyclinA binding inhibition; 0.72% of 94,000 active; P30305+P24941; HTRF CDC25B-CDK2/CyclinA binding, anti-His/anti-Flag; hits give high values; z-score (test concentration not listed); AID 1259370;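 note: score is relative to mean and SD of negative controls; strong numbers were not always called active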
TAR Tat displ: HIV-1 TAR-Tat binding disruption; HIV-1 TAR RNA, Tat peptide displacement FRET; hits give high values; z-score (test concentration not listed); 0.6% of 100,000 active;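 note: score is relative to mean and SD of negative controls; some compounds called inactive have numbers as strong as hits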
The depositor's hits bear a star; . = not tested or not shown.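 Rule for the calls: active = z-score from 3 up in half or more of its runs; inactive = the rest.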

SMILES	CDC25B-CDK2 inh	TAR Tat displ
Cc1noc(/C=C/c2ccco2)c1S(=O)(=O)N1CCC(C(=O)Nc2ccc3c(c2)OCCO3)CC1	-2.3	-0.61
COc1ccc(C)cc1N(C)S(=O)(=O)c1c(C)noc1/C=C/N(C)C	.	2
CCCNC(=O)Cn1nc(C)n2c(cc3cc(F)ccc32)c1=O	0.31	0.5
O=C(CN1C(=O)CCSc2ccccc21)N1CCN(c2ccccc2)CC1	-0.59	2.6
Cc1cc(N2C(=O)CC(C(C)c3ccccc3)C2=O)no1 (centres undefined)	-1.4	1.6
COc1cc2nc(NCc3ccccc3Cl)n3nc(-c4cccnc4)nc3c2cc1OC	-0.68	1.9
O=c1c(NCc2cccs2)nccn1-c1ccc2c(c1)OCO2	.	-0.14
CC1CCC(NC(=O)CN(C)S(=O)(=O)c2ccc3c(c2)c(=O)n(C)c(=O)n3C)CC1 (centres undefined)	-0.91	-0.7
Cc1cc(C)c(-c2c(NCc3ccc(F)cc3)c(=O)c2=O)cc1C	.	1
C=CCN1C(=S)N(c2ccc(Cl)cc2)C(=O)C1CC(=O)Nc1ccc(OC)cc1 (centres undefined)	-0.91	.
S=c1[nH]nc(-c2cccc3ccccc23)n1-c1cccnc1	-2.5	.
COc1ccc(OC)c(S(=O)(=O)Nc2ccc3c(c2)N(S(=O)(=O)c2ccccc2)CCC3)c1	.	1.4
CN(C(=O)CSc1nc2c(c(=O)[nH]1)CCC2)c1ccccc1	-2.6	0.56
C(=C\c1nn2c(-c3ccncc3)nnc2s1)/c1ccccc1	-1.6	1.3
CC(=O)N1CCc2c(sc3nc(SCC(N)=O)n(-c4ccccc4)c(=O)c23)C1	-1.8	2.8
Cc1cc(NC(=O)c2noc3c2CSc2ccccc2-3)no1	-0.07	1.3
Cc1cc(CNC(=O)NC2CCCC2)c(C)n1-c1cccc(Cl)c1	.	-0.94
CCN1CNC(=S)N(C2CCCCC2)C1	0.92	.
O=C(Nc1nnc(S(=O)(=O)N2CCCC2)s1)c1ccc(F)cc1	0.28	-0.14
COc1ccc(OC)c2c1CC(C)(C)n1c(-c3ccc(Cl)cc3)nnc1-2	0.57	.

5 compounds picked at random from those above, as already listed:
SMILES	CDC25B-CDK2 inh	TAR Tat displ
O=C(Nc1nnc(S(=O)(=O)N2CCCC2)s1)c1ccc(F)cc1	0.28	-0.14
COc1ccc(OC)c(S(=O)(=O)Nc2ccc3c(c2)N(S(=O)(=O)c2ccccc2)CCC3)c1	.	1.4
Cc1cc(CNC(=O)NC2CCCC2)c(C)n1-c1cccc(Cl)c1	.	-0.94
Cc1noc(/C=C/c2ccco2)c1S(=O)(=O)N1CCC(C(=O)Nc2ccc3c(c2)OCCO3)CC1	-2.3	-0.61
Cc1cc(NC(=O)c2noc3c2CSc2ccccc2-3)no1	-0.07	1.3

(cont.)
SMILES	CDC25B-CDK2 inh	TAR Tat displ
Cc1nc2ccccc2c2c1C(=O)N(CCC1=CCCCC1)C2=O	-0.46	1
Cc1nc(-c2cccnc2)sc1CCNS(=O)(=O)c1ccc(Br)cc1	.	0.56
Cn1nc(C(=O)NCCCN2CCCCC2)c2c1-c1ccsc1CC2	.	0.34
CC(C)(C)C(=O)/C=C1\C(=O)Nc2ccc(Br)cc21	-1.5	.
Cc1cccn2c(=O)c(C(=O)N3CCN(c4ccccc4F)CC3)cnc12	.	-2.7
Cc1ccccc1COc1ccccc1-c1nnc(-c2ccccc2)o1	.	-0.56
Nc1cc(=O)[nH]c(SCC(=O)Nc2nccs2)n1	-5	0.25
COC(=O)CNC(=O)C(=O)OC	.	1.8
Cc1cc(Br)c(-n2nc(C)c3c(C)cc(=O)oc32)cc1C	1.8	1.7
Oc1cc2c(c(Cl)c1O)CCNCC2c1ccccc1 (centres undefined)	-1.3	.
Cc1nc(-c2nnc(Sc3ccc([N+](=O)[O-])cn3)n2C)cs1	-0.94	.
COc1ccc(CNc2nc(NCCC(C)C)nc3c2cnn3C)cc1	.	0.33
Cc1cc(C)cc(-n2ccnc(N)c2=O)c1	-1.1	1
NC(=O)CSc1nnc2c(n1)[nH]c1ccccc12	-2.1	-0.12
Fc1ccccc1N1CCN(c2ncnc3onc(-c4ccc(Cl)cc4)c23)CC1	-1.3	1.2
O=C(NCc1ccccn1)C(=O)NCc1ccco1	0.04	-1.4
COc1cc([N+](=O)[O-])c(OC)cc1SCC(=O)NNC(=O)c1cc(OC)c(OC)c(OC)c1	0.52	.
N#Cc1c(N)nc2c(c1-c1ccccc1)CCCCC2	-3.9	1.6
CC(=O)N1c2ccc(S(=O)(=O)N3CCOCC3)cc2CC1C(=O)NCCc1ccco1 (centres undefined)	.	1.1
Nc1c(-c2nc(-c3ccc(Cl)cc3)no2)nnn1-c1ccc(F)cc1F	.	0.02
COc1cc(C2CC(=O)N3CN(Cc4ccccc4)CSC3=C2C#N)cc(Br)c1O (centres undefined)	3.5*	0.52
Cc1nn2c(NCc3cccnc3)cc(C(C)(C)C)nc2c1-c1ccc(F)cc1	0.04	0.43
CCCn1cc(S(=O)(=O)c2cc(C)ccc2C)c(=O)c2cc(F)c(N3CCOCC3)cc21	.	-1
CC(C)NC(=O)c1ncoc1-c1cccs1	.	1.5
COc1ccc(C2Oc3ccccc3C3=C2C(c2cccs2)n2ncnc2N3)cc1OC (centres undefined)	-1.6	.
CCNC(=O)c1cn2c3c(ccc(Cl)c3c1=O)OC(C)C2 (centres undefined)	.	5.3
CC(C)CCNC(=O)c1csc2c1CCC(C)C2 (centres undefined)	-1.9	1.7
CCOC(=O)Cc1n[nH]c(=O)[nH]c1=O	-0.86	3
CC1=C(C(=O)OC(C)C)C(c2cccc(Br)c2)C2=C(CCCC2=O)N1 (centres undefined)	0.02	-0.41
Cc1c(C(=O)NCC(c2ccco2)N2CCOCC2)oc2ccc(F)cc12 (centres undefined)	-0.77	-0.34
COc1cc(OC)c(NC(=O)Nc2nnc(N3CCCC3)s2)cc1Cl	-1.4	1.8
O=C(c1ccc2c(=O)n3c(nc2c1)CCCCC3)N1CCN(Cc2ccc3c(c2)OCO3)CC1	-0.07	-1.7
CCCCSc1ncc(CO)n1Cc1ccc(OC)cc1	.	0.77
O=C(NC1CCCCC1)N1CCc2cc3ccccc3nc21	-0.76	1.6
CCC(C)(C)NS(=O)(=O)c1ccc2c(c1)N(C(C)=O)CC(C)S2 (centres undefined)	.	1.1
O=C(c1ccc2c(c1)OCCO2)N(Cc1cccnc1)c1nc2c(F)cccc2s1	.	0.1
O=C1C(=O)N(Cc2ccc(F)cc2)c2ccccc21	.	0.47
COc1ccc(Cl)cc1NC(=O)CSc1nc(-c2ccco2)nc2cc(=O)[nH]n12	.	0.48
CC1CCc2c(sc3nnn(CC(N)=O)c(=O)c23)C1 (centres undefined)	0.41	1
Nc1nc(NCC2CCCO2)nc(NCc2ccco2)c1[N+](=O)[O-] (centres undefined)	.	1.1
O=c1[nH]nc(-c2ccc(F)cc2)c2c1Nc1nnnn1C2c1ccccc1Cl (centres undefined)	-0.3	1.4
COC(=O)C1=C(C(=O)OC)SC(=C2C(=S)C(C)(C)N(C(=O)C3CC3)c3ccc(C)cc32)S1	-2.6	1.9
COC(=O)C1=C(C)Nc2nc3ccccc3n2C1c1ccc(F)cc1 (centres undefined)	-2.2	1.2
CCc1ccccc1N1CC23C=CC(O2)C(C(=O)OC(C)C)C3C1=O (centres undefined)	-0.66	2.1
CCOCCCNC(=O)NCc1c(C)nn(C)c1C	.	0.01
CCSc1nc(-c2ccc(OC)cc2)ccc1C#N	-1.4	1.6
Cc1nc2c(c(SCC(=O)Nc3nc4c(s3)CCCC4)n1)CCC2	-0.41	0.69
C(=C\c1nn2c(C3COc4ccccc4O3)nnc2s1)/c1ccccc1 (centres undefined)	-1.5	2.1
Cc1cc2nc(-c3ccccc3)cc(=O)n2[nH]1	0.56	.
COc1ccc(CN2C(=O)c3cccnc3C2=O)cc1S(=O)(=O)N1CCOc2ccc(Cl)cc21	.	0.29
O=c1c2ccccc2cnn1-c1ccccc1	-0.31	0.76
O=C1c2cccc3c(N4CCOCC4)ccc(c23)C(=O)N1c1cccc(Cl)c1	-2.7	-5.2
CCCCN1CNc2c(c(=O)n(C)c(=O)n2C)C1	-1.4	.
C#CCn1c(C2CCCO2)nc2ccccc21 (centres undefined)	0.12	1.8
CCC(C)S(=O)(=O)c1oc(-c2ccc(F)cc2)nc1S(=O)(=O)c1ccc(C)cc1 (centres undefined)	-1.3	-0.46
Cc1nn(C)c2c1c(C(F)(F)F)cc(=O)n2Cc1ccc(Br)cc1F	.	-0.92
CCOc1ccc(-n2ccc(=O)c(C(=O)Nc3nnc(C)s3)n2)cc1	-0.65	0.55
Cc1ccc(S(=O)(=O)N2CCc3cc4cc(C)ccc4nc32)cc1	-1.2	-2.3
O=S(=O)(Nc1ccc(C(F)(F)F)cc1Cl)c1cc(Br)c(Cl)s1	-1.4	.
COC(=O)c1cc(NC(=O)c2ccc([N+](=O)[O-])o2)cc(C(=O)OC)c1	-0.96	-0.12

(more compounds)
SMILES	CDC25B-CDK2 inh	TAR Tat displ
Cc1cc2c(cc3n2CC(C)(C(=O)NC2CCCCC2)N(C(C)C)C3=O)o1 (centres undefined)	.	7.2*
CCCCN(C)C(=O)C1CCC(CNc2c(N3CCC(C)CC3)c(=O)c2=O)CC1 (centres undefined)	-2	2
CCOC(=O)c1[nH]c(C)c(C(=O)NCCc2sccc2C)c1C	-2.5	.
CCCCNc1nc(Nc2ccccc2)c2cnn(C)c2n1	.	0.45
Cc1cc(C(=O)NC2CCCc3ccccc32)no1 (centres undefined)	.	-0.57
CC(Oc1ccccc1)c1nc(-c2ccc3c(c2)[nH]c(=O)n3C2CCCC2)no1 (centres undefined)	.	0.07
Clc1ccc(OCCSc2nnnn2-c2ccccc2)cc1	1.2	-0.44
COc1ccc(-n2c(C)cc(C(=O)O)c2C)cc1	-1	1
COc1ccc(-c2nc3c4ccccc4ccn3c2CN2CCCCC2)cc1OC	-1.3	2.5
CC(C)OC(=O)c1nnn(-c2nonc2N)c1CN1CCCCCC1	-2.7	.
COc1ccccc1NC(=O)CC(NCc1cccnc1)C(=O)O (centres undefined)	-1.6	.
CN(C(=O)c1ccccc1Br)C(c1cccs1)c1c[nH]c2ccccc12 (centres undefined)	3.1	-0.14
C=Cc1ccc(Cn2c(C(=O)OC)cc3occc32)cc1	-2.8	-0.09
Cc1cc(C)c(S(=O)(=O)NCCc2sc(C)nc2C)c(C)c1	.	0.83
CC[n+]1oc(-c2ccccc2)cc1C	-1	0.68
COc1ccc(C2=C(C)C(=NCCc3ccc(OC)c(OC)c3)NS2(=O)=O)cc1	-2.3	-1.1
CCOC(=O)C(C)c1nc2ccccc2[nH]c1=O (centres undefined)	-0.92	.
O=C1CCC(=O)N1c1nc2n(n1)C(c1ccccc1)C=C(c1ccccc1)N2 (centres undefined)	-0.81	-0.71
Fc1ccc(C(c2nnc(-c3ccccc3)o2)N2CCN(c3ccccn3)CC2)cc1 (centres undefined)	-1.9	0.36
CC(C)CCNC(=O)N1CCN(S(=O)(=O)c2ccc3c(ccn3C)c2)CC1	.	0.56

4 of the compounds above, with each value named.
mol: Cc1cc2c(cc3n2CC(C)(C(=O)NC2CCCCC2)N(C(C)C)C3=O)o1 (centres undefined)
- CDC25B-CDK2 inh: .
- TAR Tat displ: 7.2*
mol: CCCCN(C)C(=O)C1CCC(CNc2c(N3CCC(C)CC3)c(=O)c2=O)CC1 (centres undefined)
- CDC25B-CDK2 inh: -2
- TAR Tat displ: 2
mol: CCOC(=O)c1[nH]c(C)c(C(=O)NCCc2sccc2C)c1C
- CDC25B-CDK2 inh: -2.5
- TAR Tat displ: .
mol: CCCCNc1nc(Nc2ccccc2)c2cnn(C)c2n1
- CDC25B-CDK2 inh: .
- TAR Tat displ: 0.45

Further results follow:
SMILES	CDC25B-CDK2 inh	TAR Tat displ
Cc1ccc(-c2n[nH]c(=O)c3c2CCCC3)cc1S(=O)(=O)N1CCc2ccccc21	0.59	1.2
COc1cc2ccccc2cc1C(=O)Nc1cc(-c2nc3ccccc3o2)ccc1C	-1.4	.
O=C(c1ccc(Cl)cc1Cl)N1CCc2[nH]c3ccc(F)cc3c2C1	-2.2	.
O=C(NCC1CCCO1)c1ccc(Cn2c(SCc3ccccc3)nc3ccncc32)cc1 (centres undefined)	0.2	0.66
COc1nc(C)nc(N/C=C(\C#N)C(=O)C2CC2)n1	-0.84	.
O=C(NCc1cccs1)c1cccc2c1C(=O)N(CC1CCCO1)C2 (centres undefined)	-0.42	1.4
CCCCOc1ccccc1CC1C(=O)Nc2ccc(Br)cc21 (centres undefined)	-3	2.4
COc1ccc(-c2cc(-c3ccc(OC)cc3)nc(-c3ccc(C)o3)c2)cc1	-17	.
Cc1sc2ncnc(N(C)C3CCCCC3)c2c1S(=O)(=O)N1CCC(C)CC1	-0.37	.
c1sc2c(c1CN1CCCC1)CCCC2	.	1.3
CC(C)n1c(=O)[nH]c2ccccc2c1=O	-0.5	0.41
COc1cccc(CSc2nncn3c2cc2oc(C)cc23)c1	.	0.97
Cc1cc(C(=O)NNC(=O)c2c(-c3c(Cl)cccc3Cl)noc2C)no1	-0.28	.
COC(=O)Nc1ccc(S(=O)(=O)N2CCCCC2)cc1	-0.42	1.5
CS(=O)(=O)N(Cc1ccc(Cl)cc1)c1ccc(C(=O)Nc2cccc(Br)c2)cc1	0.07	.
O=C(CSc1nnc2sc3ccccc3n12)c1ccc2c(c1)OCO2	-0.98	.
CC1CC(=O)c2cnn(-c3nc4ccccc4s3)c2C1 (centres undefined)	-0.51	-0.09
CC1=C(c2ccc(C(C)C)cc2)S(=O)(=O)N=C1N1CCN(Cc2ccc3c(c2)OCO3)CC1	-1.3	-0.47
CSc1nn2c(=O)cc(CSc3nc4ccccc4[nH]3)nc2s1	0.29	0.23
